fixLJ activator: activators of Burkholderia fixLJ two-component system, primary screen, B. multivorans, GFP reporter; 29,000 compounds, 0.3% hits; B. multivorans fixK-promoter GFP reporter, 18 h; stronger effect = higher value; z-score (no concentration beside the values);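 active means replicate mean overnight rise in green fluorescent reporter signal, 3 or more SD over negative controls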;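 further: score is relative to vehicle wells of the plate; 300 nL library stock went into each well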
* hit, by the source's call.

Start of the listing, in advance (14 entries):
SMILES | fixLJ activator
CCc1[nH]nc(C(=O)NC2COCC2Cc2ccncc2)c1C (stereo not drawn) | -1.4
COC(=O)c1[nH]ncc1CN1CCCC1c1nc(-c2ccccc2)no1 (stereo not drawn) | -0.53
COc1cc(NC(=O)Cn2nc(Cc3cccnc3)c3ccccc3c2=O)cc(OC)c1OC | -0.23
Cc1ccccc1NC(=O)Nc1csc2c1CCCC2 | -4.1
Cc1c2cnn(CC(=O)N3CCN(c4ccccc4)CC3)c(=O)c2c(C)n1Cc1ccccc1Cl | 0.59
CCCc1cc(C(=O)NC(c2cnc3ccccc3c2)C2CC(O)C2)n(C)n1 (stereo not drawn) | -1.6
CCN1CCOC(=O)C1CC(=O)Nc1ccc(C(C)=O)cc1 (stereo not drawn) | 0.86
OC1CN(c2cc(C(F)(F)F)nc(N3CCCC3)n2)CC1Cc1ccccn1 (stereo not drawn) | 0.49
Cc1ccc2cc(CN(C)C(=O)c3cccc(Cl)c3)c(=O)[nH]c2c1 | -2.1
COc1ccccc1-c1ncc(CN2CCCC3(CCc4cnc(N)nc43)C2)s1 (stereo not drawn) | -1.4
O=C(Cn1c(=O)n(-c2ccccc2)c(=O)c2ccc(C(=O)NCc3ccc4c(c3)OCO4)cc21)Nc1ccc(F)cc1 | -0.34
CCSc1ncc(Cl)c(C(=O)Nc2sc3c(c2C(=O)NC)CCCC3)n1 | -1.6
Cc1ccc(NC(=O)CCc2nnc3n(C)c(=O)c4sccc4n23)cc1C | 1.2
COc1ccc(CCNC(=O)CCc2c(C)nc3c4cccnc4nn3c2C)cc1OC | -0.4

This part in full, from the start:
SMILES | fixLJ activator
CCc1[nH]nc(C(=O)NC2COCC2Cc2ccncc2)c1C (stereo not drawn) | -1.4
COC(=O)c1[nH]ncc1CN1CCCC1c1nc(-c2ccccc2)no1 (stereo not drawn) | -0.53
COc1cc(NC(=O)Cn2nc(Cc3cccnc3)c3ccccc3c2=O)cc(OC)c1OC | -0.23
Cc1ccccc1NC(=O)Nc1csc2c1CCCC2 | -4.1
Cc1c2cnn(CC(=O)N3CCN(c4ccccc4)CC3)c(=O)c2c(C)n1Cc1ccccc1Cl | 0.59
CCCc1cc(C(=O)NC(c2cnc3ccccc3c2)C2CC(O)C2)n(C)n1 (stereo not drawn) | -1.6
CCN1CCOC(=O)C1CC(=O)Nc1ccc(C(C)=O)cc1 (stereo not drawn) | 0.86
OC1CN(c2cc(C(F)(F)F)nc(N3CCCC3)n2)CC1Cc1ccccn1 (stereo not drawn) | 0.49
Cc1ccc2cc(CN(C)C(=O)c3cccc(Cl)c3)c(=O)[nH]c2c1 | -2.1
COc1ccccc1-c1ncc(CN2CCCC3(CCc4cnc(N)nc43)C2)s1 (stereo not drawn) | -1.4
O=C(Cn1c(=O)n(-c2ccccc2)c(=O)c2ccc(C(=O)NCc3ccc4c(c3)OCO4)cc21)Nc1ccc(F)cc1 | -0.34
CCSc1ncc(Cl)c(C(=O)Nc2sc3c(c2C(=O)NC)CCCC3)n1 | -1.6
Cc1ccc(NC(=O)CCc2nnc3n(C)c(=O)c4sccc4n23)cc1C | 1.2
COc1ccc(CCNC(=O)CCc2c(C)nc3c4cccnc4nn3c2C)cc1OC | -0.4
CC(C)N1CCC(CC(=O)NCc2nnc3n2CCCC3)CC1 | -1.5
CC(C)NC(=O)C1CC(N)CN1C(=O)c1cccc(-c2ncc[nH]2)c1 (stereo not drawn) | 0.36
CCn1nc(C)c(NC(=O)CN(C)Cc2nnc(-c3ccccc3)o2)c1C | -0.96
CCCn1c(CCCNC(=O)c2ccccc2OC)nc2ccccc21 | -0.11
CCOc1ccccc1OCCN[C@H](C)Cc1ccc(OC)c(S(N)(=O)=O)c1 | 0.88
O=C1OCCCN1CCNC(=O)C1(c2ccc(Cl)cc2)CCCCC1 | 0.98
Cc1cccc(CCNC(=O)c2cc3c(=O)n(C)c4ccccc4c3n2C)c1 | 0.06
CCn1c(=O)sc2cc(NS(=O)(=O)c3ccc(C)cc3)ccc21 | -1.5
Cc1ccc2c(C)c(C(=O)N(Cc3ccc(N(C)C)cc3)Cc3ccco3)oc2c1C | 0.15
CC(=O)NCCNC(=O)CCCn1c(=O)[nH]c2ccsc2c1=O | -0.54
O=C1CC(c2nc3ccccc3n2Cc2c(F)cccc2Cl)CN1c1cccc(C(F)(F)F)c1 (stereo not drawn) | -1.4
CCOC(=O)c1c(NC(=O)CSc2cn(CCNC(=O)c3c(F)cccc3F)c3ccccc23)sc2c1CCCC2 | 0.16
COCc1n[nH]c(C)c1-c1ccc(C(=O)N(C)CCn2ccnc2C)cc1 | -2.3
Cc1cc(N2CCCCC2)nc2ccc(NC(=O)/C=C/c3ccc(OCCC(C)C)cc3)cc12 | 0.76
CCCn1c(COc2cccc(C)c2)nc2ccccc21 | -0.97
CCc1ccc(-n2c(=O)c3sc4ccccc4c3n(CC(=O)NCc3ccccc3)c2=O)cc1 | -1.5
COC1CC2CCC(C)C(O)(O2)C(=O)C(=O)N2CCCCC2C(=O)OC(C(C)CC2CCC(O)C(OC)C2)CC(=O)C(C)/C=C(\C)C(O)C(OC)C(=O)C(C)CC(C)/C=C/C=C/C=C/1C (stereo not drawn) | -0.85
Cc1cccc(C)c1OCC(=O)Nc1ncn[nH]1 | -0.77
O=c1oc2c(F)cc(F)cc2cc1S(=O)(=O)c1ccc(F)cc1 | 0.84
Cc1cnc(C(=O)NC2CCCN(Cc3ccc(F)cc3)C2)[nH]1 (stereo not drawn) | 1.2
Cc1cc(S(=O)(=O)n2ccnc2C(C)C)cc([N+](=O)[O-])c1C | -2.9
CCCc1ncncc1C(=O)NCCc1nc(C)cc(=O)[nH]1 | 0.25
Nc1nc(C2CC(N)C2)cc(N2CCN(C3CCCC3)C(=O)C2)n1 (stereo not drawn) | 0.41
O=S(=O)(Nc1nc2n(n1)C(c1ccccc1)C=C(c1ccc(Cl)cc1)N2)c1ccccc1 (stereo not drawn) | 1.2
CCOc1ccc(N(CC)S(=O)(=O)N2CCCC(C(=O)NCCc3ccc(OC)cc3)C2)cc1 (stereo not drawn) | -0.51
COc1cc2oc(=O)c(CC(=O)NCCc3ccccc3)c(C)c2cc1Cl | -1.4
Cc1cccc(NC(=O)CN2C(=O)C(c3ccc(F)cc3)=NC23CCCCCC3)c1 | 2.1
CCNC(=O)c1c(NC(=O)COc2ccc(F)cc2)sc2c1CCCC2 | -0.03
CCC1CCc2nc3sc(C(=O)Nc4cccc(C(F)(F)F)c4)c(N)c3cc2C1 (stereo not drawn) | -2.1
O=C(O)c1ccccc1-c1c2cc(Br)c(=O)cc-2oc2[c]([Hg])c(O)c(Br)cc12 | -4.6
Cc1ccc(CNC(=O)c2cn(C)c3ccc(S(=O)(=O)N4CCOCC4)cc3c2=O)cc1 | -0.54
Cc1cc(COc2ccccc2)oc1C(=O)NCc1c[nH]c(=O)[nH]c1=O | 1.1
Nc1nnc(CCNC(=O)CCNC(=O)c2ccccc2F)s1 | -0.27
CCOC(=O)C1CCCN(CC(=O)N2CCCc3c2c(=O)oc2ccc(OCc4ccccc4)cc32)C1 (stereo not drawn) | 0.36
COCCN1CCN(C(=O)c2ccc(N(C)C)cc2)C2CS(=O)(=O)CC21 (stereo not drawn) | 0.14
CC(=O)c1ccc(NC(=O)c2cc3c(=O)oc4ccc(C)cc4c3s2)cc1 | -0.8
CCN(CCCNC(=O)c1cc2c(=O)[nH]c3ccc(C)cc3c2s1)Cc1ccccc1 | -1.8
COc1ccc(Cn2c(SCc3ccc(C(=O)NCc4cccs4)cc3)nc3ccncc32)cc1 | -3.1
Cc1nc2c3ccccc3nc(NNC(=O)CCC(=O)O)n2n1 | 0.46
O=C(CSc1nnc(-c2ccccc2F)o1)N1CCc2ccccc21 | 0.29
NC(=O)Cn1c(=O)n(CCCCCC(=O)NCc2ccc3c(c2)OCO3)c(=O)c2sccc21 | -0.75
CN(C(=O)c1ccc(F)c(O)c1)C1C[C@@H]2CNC(=O)C[C@H]2C1 (stereo partly drawn) | -0.89
CCCN(C(=O)c1nn(-c2ccc(C)cc2)c(=O)c2c1c1ccccc1n2C)c1ccccc1C | -1.7
COc1ccc(CCNC(=O)Cn2c(=O)c3sccc3n(CC(=O)Nc3cccc(C(F)(F)F)c3)c2=O)cc1OC | 0.58
COc1ccc(-c2nc3ccccc3s2)cc1NC(=O)c1cc2ccccc2o1 | -1.8
O=C(Cn1nnnc1-c1ccccc1F)Nc1ccc(OC(F)(F)F)cc1 | -2.2
(further entries)
SMILES | fixLJ activator
CCOc1ccc(NC(=O)CSc2nc3ccccc3nc2N2CCOCC2)cc1 | 0.24
Cc1cc(C)cc(Oc2nc3ccccn3c(=O)c2/C=C(\C#N)c2nc3ccccc3s2)c1 | -2.4
COc1cccc(CNC(=O)CCCn2nc(C)n3c(cc4sccc43)c2=O)c1 | -0.1
COCCCNC(=O)c1c(NC(=O)Cc2coc3c(C)c(C)ccc23)sc2c1CCCC2 | 2.7
COc1ccc(CCNC(=O)CCc2c(C)nc3c(-c4ccc(F)cc4)c(C)nn3c2C)cc1OC | 0.78
Cc1nccc(-c2cccc(NC(=O)NC(c3nccn3C)C3CC3)c2)n1 (stereo not drawn) | -1.1
COc1ccc(CNC(=O)CCc2c(C)c3cc4c(C)coc4c(C)c3oc2=O)cc1OC | -1.8
O=S(=O)(c1ccc2c(c1)OCCCO2)N1CCC[C@]2(CCCC2O)C1 (stereo partly drawn) | 0.3
CCCCNC(=O)CCC(=O)NNc1nc2ccccc2c2nc(-c3ccccc3)nn12 | 0.27
Cc1cc(C)c(Cn2c(=O)n(CCCC(=O)NCc3ccc4c(c3)OCO4)c(=O)c3sccc32)c(C)c1 | -1.5
Cc1ccc(C)c(NC(=O)Cn2ncc3c(C)n(Cc4ccc(F)cc4)c(C)c3c2=O)c1 | -1.6
COc1ccc(Cn2c(CCC(=O)Nc3cccc(Cl)c3)nc3cccnc32)cc1 | 1
CCc1nc(SCC(=O)NC2CCN(c3ccc(F)cc3)CC2)n[nH]1 | 0.17
Cc1ccc(NC(=O)CSc2c3c(nc4ccccc24)CCCC3)cc1F | -1.9
CC(Cc1ccc(O)cc1)NCC(O)c1cc(O)cc(O)c1 (stereo not drawn) | -0.61
NC12CC3CC(CC(C3)C1)C2 | -0.03
COc1ccc2c(c1)sc1ncc(C(=O)NCc3ccccc3F)c(=O)n12 | -1.3
Cc1ccc(C)c(N2CCN(C(c3ccc(F)cc3)c3nnc(-c4ccccc4)o3)CC2)c1 (stereo not drawn) | 0.39
Cc1ccc(C)c(CN2C(=O)C3(c4ccccc42)N(c2cccc(C(F)(F)F)c2)C(=O)CS3(=O)=O)c1 (stereo not drawn) | -1.8
CN1CCOCC1C(=O)N1CCC2(CC1)OCCc1c2[nH]c2ccccc12 (stereo not drawn) | -0.74
COc1cccc(-c2cc(C(=O)Nc3ccc4c(c3)OCO4)no2)c1 | -0.4
O=C(CCC(F)(F)F)N1CCCC(c2nccn2Cc2ccccn2)C1 (stereo not drawn) | -2
COc1ccc(NC(=O)CSc2c3c(nc4ccc(Cl)cc24)CCCC3)cc1Cl | 0.02
Cc1ccc2cc3c(N)nn(C(=O)c4cccc(F)c4)c3nc2c1 | -1.5
CCOC(=O)c1cccc(NC(=O)c2cc3cc4cc(OC)ccc4nc3s2)c1 | -1.5
O=C(Cn1ncc2c3ccccc3n(Cc3ccc(Cl)cc3)c2c1=O)N1CCCCCC1 | 6.4*
CCN(CC)C(=O)c1ccc(NC(=O)CCn2nc(-c3ccc(Cl)cc3)c3ccccc3c2=O)cc1 | -3.4
CCc1ccccc1NC(=O)C1CCN(c2nn3c(=O)cc(C)nc3s2)CC1 | -2.2
CC1CCCN(CCCNC(=O)c2cn(C)c3ccc(S(=O)(=O)N(C)C4CCCCC4)cc3c2=O)C1 (stereo not drawn) | -1.4
CNCc1nnc(SCC2CCCO2)n1-c1cccc(Cl)c1 (stereo not drawn) | -1.8
COc1ccc(CNC(=O)CCc2c(C)nc3c(c2C)c(=O)n(C)c(=O)n3C)cc1 | -0.71
CC(=O)N1CCc2c(sc3c2c(=O)n(-c2ccc(C)cc2)c(=O)n3Cc2c(F)cccc2Cl)C1 | -0.24
CCc1nn(CCCC(=O)N2CCN(c3cccc(OC)c3)CC2)c(=O)c2cc3occc3n12 | 0.27
CCn1c(N)nc2cc(C(=O)NCCn3cnnc3)cnc21 | 1.5
COc1ccc(NC(=O)c2c(NC(=O)c3ccc(Br)cc3)sc3c2CCCC3)cc1 | 0.59
Cc1cccc(C(=O)N2CC3CCC(C2)N(Cc2cscn2)C3=O)n1 (stereo not drawn) | -1.5
Cc1nc2cc(OCc3nc(C(=O)N(C)CC4(CO)CC4)co3)ccc2s1 | -0.6
CCOc1ccc(C2CC(=O)n3nc(-c4ccc(C)cc4)nc3S2)cc1 (stereo not drawn) | -1.1
Cc1ccc(C(=O)Nc2ccc(C(=O)O)cc2)cc1S(=O)(=O)Nc1ccccc1 | -0.7
CCn1cc(C(=O)NCCc2ccccc2)c(=O)c2cc(S(=O)(=O)N(C)C3CCCCC3)ccc21 | -0.57
Cc1nc2c(c(=O)[nH]1)CN(C(=O)c1cc(CC(C)C)nc(N)n1)C2 | -0.08
CN(Cc1nc2ccsc2c(=O)[nH]1)Cc1nnc(-c2cccnc2)o1 | -1.5
COc1ccc(CCNc2oc(/C=C/c3ccc(OC)c(OC)c3)nc2C#N)cc1 | 1.8
Cc1ccccc1Cn1nnc2c(=O)[nH]c(C3CCN(C(=O)c4ccccc4Cl)CC3)nc21 | -1.3
COCc1cc(C)n(CC(=O)Nc2cccc(C(C)=O)c2)c(=O)c1C#N | -1.1
COc1ccc(S(=O)(=O)NC2COCC2Cc2ccncc2)cc1C (stereo not drawn) | -2.3
COc1cc(C(=O)Nc2ccc(NC(=O)c3ccc(C(C)(C)C)cc3)cc2)cc(OC)c1OC | 1.6
COc1ccc(N(CC(=O)Nc2cc(OC)cc(OC)c2)S(=O)(=O)c2c(C)noc2C)cc1 | -0.54
COc1ccnc(C(=O)NC(Cn2cccn2)c2ccccc2)c1 (stereo not drawn) | -0.09
CCN(CC)CCNC(=O)c1nn(-c2ccc(OC)c(Cl)c2)c(=O)c2c1c1ccccc1n2C | 0.43

An excerpt. The share of hits here may be higher or lower than overall.
